# Screening data from PubChem BioAssay.
# E coli growth – E. coli growth inhibition; OD600 absorbance (no concentration beside the values); Escherichia coli growth, OD600, 23 h; active compounds read low; AID 1053175; actives 0.21% (n = 330,000);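 active means OD600 absorbance below the run mean of sample wells minus 3.6 SD, in any replicate, cut at about 0.56 in these data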;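 further: stock transfer was 300 nL into about 60 µL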
# UCH37 inh – human UCH37 deubiquitinating enzyme inhibition. purified proteasome/UCH37, Ub-AMC cleavage fluorescence. actives 0.33% (n = 330,000). Q9Y5K5. inhibition, % (concentration not given with the values). AID 588478;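 active means mean of two replicates above 20%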;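 further: 0% = compound-free wells with enzyme and 100% = wells lacking proteasome; stock transfer was 100 nL into about 20 µL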
# Target sequence (Q9Y5K5 whole entry, looked up): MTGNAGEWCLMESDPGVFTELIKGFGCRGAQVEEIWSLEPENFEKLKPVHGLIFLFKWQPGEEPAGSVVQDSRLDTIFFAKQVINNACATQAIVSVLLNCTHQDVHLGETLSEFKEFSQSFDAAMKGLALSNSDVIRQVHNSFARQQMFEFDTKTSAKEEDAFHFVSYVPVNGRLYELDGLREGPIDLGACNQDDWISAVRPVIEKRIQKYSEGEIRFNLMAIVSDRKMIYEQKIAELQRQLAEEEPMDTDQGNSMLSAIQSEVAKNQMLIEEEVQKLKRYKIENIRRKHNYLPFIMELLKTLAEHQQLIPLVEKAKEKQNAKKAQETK
#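 Material: human UCH37 enzyme supplied as purified proteasome complex. Measure: % inhibition of Ub-AMC cleavage fluorescence. Medium: pH 7.4 Tris-HCl (50 mM) with ovalbumin, ATP-MgCl2, DTT. Times: 30 min preincubation with enzyme, 25 min cleavage at room temperature. Detection: AMC fluorescence intensity at 355/460 nm.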
# Numbers without * were called inactive; i = inactive.
# Start of the data: the first four compounds, ahead of the listing:
SMILES | E coli growth | UCH37 inh
CCn1c(C(C#N)=C(O)CCc2ccccc2)nc2ccccc21 | 0.73 | -98
Cc1cc(-c2n[nH]c(=S)n2N=Cc2ccc(Br)s2)n[nH]1 | 0.69 | 4.0
COc1ccc(OCC(=O)NN=C(C)c2ccc(OC)cc2)cc1 | 0.68 | 1.5
CON=Cc1ccc(N2CCCC2)c([N+](=O)[O-])c1 | 0.67 | 4.1

# The listing, previewed entries included:
SMILES | E coli growth | UCH37 inh
CCn1c(C(C#N)=C(O)CCc2ccccc2)nc2ccccc21 | 0.73 | -98
Cc1cc(-c2n[nH]c(=S)n2N=Cc2ccc(Br)s2)n[nH]1 | 0.69 | 4.0
COc1ccc(OCC(=O)NN=C(C)c2ccc(OC)cc2)cc1 | 0.68 | 1.5
CON=Cc1ccc(N2CCCC2)c([N+](=O)[O-])c1 | 0.67 | 4.1
COCc1cc(C)nc(OCC(=O)NN=Cc2ccc(-c3cccc([N+](=O)[O-])c3)o2)c1C#N | 0.74 | 16
S=c1[nH]c(-c2ccccc2)cn1N=Cc1ccncc1 | 0.67 | 6.2
COc1ccc(C=NNc2nc(N)cc(Cl)n2)cc1OC | 0.72 | 12
CCOc1cccc(-c2c(C(=O)NN=Cc3ccncc3)nnn2-c2nonc2N)c1 | 0.65 | 2.8
C(=NNCc1ccccc1)c1ccc2nccnc2c1 | 0.66 | 6.1
CC1CC(=N/N=C2/NC(=O)CS2)CC(C)(C)C1 (stereo not given) | 0.75 | 1.1
Cc1nc2sc(-c3ccccc3)cc2c(=O)n1N=CN(C)C | 0.7 | -5.5
COc1ccc(OC)c(C=NNC(=O)CC(=O)NCc2ccccc2)c1 | 0.67 | i
CC(=NOC(=O)Nc1ccccc1)c1cnn(-c2cc(C(F)(F)F)cc(C)n2)c1C | 0.68 | 5.1
COc1ccc2ccccc2c1C=Nn1cnnc1 | 0.65 | 5.5
COc1cc(OC)c2cc(C(=O)NN=Cc3ccccc3O)[nH]c2c1 | 0.69 | -12
Cc1cc(=O)[nH]c(NN=Cc2c(C)nn(-c3ccccc3Cl)c2Cl)n1 | 0.7 | 2.9
O=C(NN=Cc1cccc(O)c1)c1cc(-c2ccccc2)nc2ccccc12 | 0.68 | -2.6
NC(=S)NN=Cc1cn(CCC(=O)O)nc1-c1cccc(Br)c1 | 0.7 | 3.3
CCc1ccc(S(=O)(=O)NN=Cc2ccc3c(c2)OCO3)cc1 | 0.69 | 2.8
COc1cc(C=NNC(=O)COc2ccc(C)cc2)ccc1OC(=O)c1cccs1 | 0.71 | 2.6
CCOC(=O)C(=NNc1ccccc1OC)N1CCCc2ccccc21 | 0.72 | 5.5
O=C(NN=C/C(Br)=C/c1ccccc1)c1cc(-c2ccco2)[nH]n1 | 0.59 | 2.9
Cn1c(Cl)c(C=NOC(=O)c2ccc(Cl)cc2)c2ccccc21 | 0.74 | -2.3
COC(=O)c1cccc2c1-c1ccccc1C2=NO | 0.67 | -1.3
O=C(NN=Cc1ccco1)c1ccncc1 | 0.72 | 8.3
CCOc1cc(C=NN2CCOCC2)ccc1OCc1ccc(C(=O)OC)o1 | 0.66 | 3.4
O=C(NN=Cc1cccc(Cl)c1)c1ccc(Cn2cc(Br)c([N+](=O)[O-])n2)o1 | 0.64 | 2.5
O=C(CNC(=O)C1COc2ccccc2O1)NN=Cc1cc(Br)c(O)c(Br)c1 (stereo not given) | 0.61 | -39
Nc1nnnn1N=Cc1ccc(N2CCCCC2)c([N+](=O)[O-])c1 | 0.68 | 9.0
CC(=NNc1ccc(F)cc1)c1ccc(N2CCOCC2)c(F)c1 | 0.6 | 0.3
CC(=NNC(=O)CNc1cccc2ccccc12)c1ccc(Br)s1 | 0.75 | 3.1
Cn1ccnc1C(=NNC(=O)c1ccc(O)cc1)c1cccc([N+](=O)[O-])c1 | 0.7 | 9.7
CC1CCCC(C)N1N=Cc1ccc([N+](=O)[O-])cc1 (stereo not given) | 0.71 | 6.7
O=C(COc1ccccc1-c1ccccc1)NN=Cc1ccncc1 | 0.71 | 6.2
CC(C)c1ccc(OCc2cccc(C(=O)NN=Cc3cccnc3)c2)cc1 | 0.69 | 2.5
COc1ccc(C=Nn2c(-c3cccs3)n[nH]c2=S)cc1 | 0.64 | 2.8
O=C(COc1ccccc1)NCC(=O)NN=Cc1cc(Br)ccc1OCc1ccccc1 | 0.66 | 2.0
NC(=NO)c1ccc(Cl)cc1Cl | 0.58 | 1.3
Cc1ccc(S(=O)(=O)NN=C2CC(=O)CC(C)(C)C2)cc1[N+](=O)[O-] | 0.71 | 6.9
CCCC=NNc1nnc(Cc2ccccc2)c(=O)[nH]1 | 0.66 | 2.7
O=C(CN1CCOCC1)NN=Cc1ccccc1 | 0.72 | 0.6
Cc1ccc(C=NN2CCN(c3ccc(Cl)cc3)CC2)o1 | 0.7 | 3.0
CC(=NNC(=O)c1ccc(Cn2cc([N+](=O)[O-])cn2)o1)c1cccc(NC(=O)C(C)C)c1 | 0.66 | 4.9
Cc1cc2c(nn1)CCCC2=NO | 0.8 | 4.7
O=C(/C=C1\NC2(CCCC2)Cc2ccccc21)C(=O)NN=Cc1ccccc1O | 0.65 | 6.3
CCCOc1ccc(-c2c(C(=O)NN=Cc3ccsc3)nnn2-c2nonc2N)cc1 | 0.75 | 2.7
CC(=NNC(=O)CSCc1ccccc1Cl)c1cc(O)ccc1O | 0.68 | 2.8
CC(C)n1c(N=Cc2c[nH]c3ccccc23)nc2ccccc21 | 0.69 | 1.5
COc1ccc(C(C)=NNC(=O)Cc2ccc(Cl)cc2)cc1 | 0.69 | 1.2
Cc1[nH]n(-c2ccc(Cl)cc2)c(=O)c1C=Nc1nnc(-c2ccccc2)s1 | 0.7 | 6.6
Cc1cc(C)cc(OCC(=O)NN=Cc2ccc([N+](=O)[O-])o2)c1 | 0.68 | 8.4
CC(Cn1nnc([N+](=O)[O-])n1)=NNC(=O)c1ccccc1 | 0.67 | -1.6
O=S(=O)(N=C(c1ccccc1)N1CCOCC1)c1ccc(Cl)cc1 | 0.7 | 1.7
O=C(O)c1ccc(C=NNC(=O)c2ccc(NS(=O)(=O)c3cccs3)cc2)cc1 | 0.7 | 13
Brc1ccc(C=NNc2nncc(-c3ccccc3)n2)o1 | 0.67 | 4.5
CCCCC(=O)NN=Cc1cc([N+](=O)[O-])ccc1N1CCOCC1 | 0.67 | 9.0
O=C1Nc2ccccc2C1=Nc1sc2c(c1C(=O)NCCc1ccccc1)CCCC2 | 0.76 | 0.6
Nc1ccc(C(=O)NN=Cc2ccccc2)cc1 | 0.72 | 8.0
CCC(C)=NNc1nc2c(c(=O)[nH]c(=O)n2C)n1Cc1ccccc1 | 0.68 | -4.6
CCC(C)=NNC(=S)NCc1ccco1 | 0.68 | 5.1

# Looked up by compound from the entries so far (2):
SMILES | E coli growth | UCH37 inh
CON=Cc1ccc(N2CCCC2)c([N+](=O)[O-])c1 | 0.67 | 4.1
CCOC(=O)C(=NNc1ccccc1OC)N1CCCc2ccccc21 | 0.72 | 5.5

# Continuation:
SMILES | E coli growth | UCH37 inh
O=C(NN=Cc1ccco1)c1cccc(S(=O)(=O)Nc2ccccc2Cl)c1 | 0.67 | 1.0
COc1cc(C=NNC(=O)c2ccccc2O)ccc1OC(=O)CC1SC(=O)NC1=O (stereo not given) | 0.68 | 7.8
CC(CC(=O)Nc1ccc2c(c1)OCO2)=NNC(=O)OC(C)(C)C | 0.69 | 1.4
O=C(NN=C/C=C/c1ccccc1)c1ccc(Br)cc1 | 0.67 | 0.0
CCN(CC)c1ccc(C=NNC(=O)Nc2ccccc2)cc1 | 0.65 | -31
CC(=NNC(=O)c1cccs1)c1cccnc1 | 0.65 | 3.9
CN(C)CCCNCCCNC(=O)C(=NO)c1ccccc1 | 0.7 | 2.6
O=C(O)CC1S/C(=N/N=Cc2ccc(-c3ccc(Cl)cc3[N+](=O)[O-])o2)NC1=O (stereo not given) | 0.66 | 28*
Cc1ccc(NC(=O)CCC(=O)NN=Cc2coc3ccc(F)cc3c2=O)cc1 | 0.69 | -4.6
CCOC(=O)C1=C(C)CC(=NNC(=O)c2ccccc2O)CC1 | 0.66 | 0.1
Cc1ccc(C=NNC(=O)c2cc(-c3ccccc3)nc3ccccc23)o1 | 0.67 | 0.8
O=C(CNC(=O)c1cccs1)NN=Cc1cccc(Br)c1 | 0.71 | 2.2
Cc1ccc(C(=O)NN=Cc2sccc2C)cn1 | 0.7 | 5.4
COc1ccc(C=NNC(=O)c2cc[n+]([O-])cc2)cc1OC | 0.71 | 8.0
Cc1cc(C)n(CCC(=O)NN=Cc2ccc(O)cc2O)n1 | 0.62 | -8.8
CC(=NNC(=O)c1ccoc1C)c1ccc(Cl)s1 | 0.71 | 7.0
Cc1ccc(C=NNC(=O)c2ccccc2OCc2cccc(Br)c2)o1 | 0.72 | 2.7
Cc1ccc(C=Nn2cc(-c3ccccc3)[nH]c2=S)s1 | 0.72 | 3.3
CON=Cc1c(-c2ccccc2)nn(C)c1Cl | 0.73 | 1.2
Cc1ccc(C(CSc2nccn2-c2ncc(C(F)(F)F)cc2Cl)=NO)cc1 | 0.71 | 0.5
COc1cccc(C=NNC(=O)c2ccccc2N(Cc2ccccc2)S(=O)(=O)c2ccccc2)c1OC | 0.74 | -0.2
Cc1ccc(SCCC(=O)NN=Cc2cccnc2)cc1 | 0.63 | 0.3
CCOc1cc(C=NNc2nc(-c3cccc(S(=O)(=O)N4CCCC4)c3)cs2)ccc1O | 0.71 | -82
N#CCC(=O)NN=Cc1c2ccccc2cc2ccccc12 | 0.73 | 6.0
COc1ccc(C=NOCC(=O)N=Nc2c(O)[nH]c3ccc(Br)cc23)cc1 | 0.76 | -1.2
COC(=O)c1ccc(C=NOCC(=O)NC2CCCCCCC2)cc1 | 0.75 | 0.8
COc1cc(OC)nc(Oc2cc(C=NO)ccc2OC)n1 | 0.7 | -1.8
Cc1cc(C)nc(NN=Cc2cc(C)n(CC(F)(F)F)c2C)n1 | 0.65 | 8.1
CCOC(=O)c1oc2c(c1C)C(=NO)CCC2 | 0.69 | 0.6
COc1ccccc1/C=C/C(=O)NCC(=O)NN=C(C)c1ccco1 | 0.67 | -17

# Continuation:
# Each structure is followed by: E coli growth	UCH37 inh
- CC1(C)CC(=O)CC(=NNC(=O)c2cccs2)C1
    0.69	5.8
- Cc1no[n+]([O-])c1COc1cccc(C=NNc2nncn2N)c1
    0.7	6.6
- CCOC=NNc1nc(C(F)(F)F)nc2c1cnn2Cc1ccccc1
    0.68	-1.6
- CN(C)C=Nc1c(C#N)nnn1Cc1ccccc1
    0.72	-1.3
- COc1ccc(CC(=O)NN=Cc2ccc(C)s2)cc1
    0.72	5.8
- CCOC(=O)NN=Cc1ccccc1F
    0.64	0.4
- COc1ccc(CC(C)=NNC(=O)C2COc3ccccc3O2)cc1 (stereo not given)
    0.64	2.1
- N#CCC(=O)NN=Cc1cccc(OC/C=C/c2ccccc2)c1
    0.74	-3.6
- CCOC(=O)C(=NNc1ncnc2ccccc12)c1ccc(C)cc1
    0.67	4.3
- CC12CN3CCN(CC(C3)C1=NNC(=O)c1ccccc1N)C2
    0.7	-135
- CC(CC(=O)Nc1cccc(C(F)(F)F)c1)=NNC(=O)c1ccncc1
    0.68	-0.1
- Cc1ncc(CO)c(C=NNC(=O)c2cc(O)c(O)c(O)c2)c1O
    0.62	-20
- CC(=NO)c1cc(C(C)(C)C)c(O)c(C(C)(C)C)c1
    0.72	2.1
- COc1cc(C=NNC(=O)c2ccc(=O)[nH]n2)cc(OC)c1OC
    0.77	7.8
- CC(=NNS(=O)(=O)c1ccc(C)cc1)c1ccc(NC(=O)C(F)(F)F)cc1
    0.71	5.4

# Record cards, as listed above. Values in the order: E coli growth, UCH37 inh
# Listed for CC12CN3CCN(CC(C3)C1=NNC(=O)c1ccccc1N)C2 = 0.7, -135
# Listed for Cc1ncc(CO)c(C=NNC(=O)c2cc(O)c(O)c(O)c2)c1O = 0.62, -20
# Listed for CN(C)C=Nc1c(C#N)nnn1Cc1ccccc1 = 0.72, -1.3

# Remaining list, next part
# Each structure is followed by: E coli growth	UCH37 inh
- CN(C)c1ccc(C=NNC(=O)c2ccn(C)n2)cc1
    0.68	2.5
- O=C(NN=Cc1cccs1)c1ccc(NC(=O)c2ccccc2Cl)cc1
    0.68	7.2
- COc1ccc2ccccc2c1C=NNC(=O)c1cc(C)[nH]n1
    0.69	4.4
- CCOc1cc(C=NNc2ccc(C(=O)O)cc2)ccc1OC(=O)c1ccccc1C
    0.71	-3.8
- Cc1cccc(NC(=S)NN=CC(C)c2ccccc2)c1C (stereo not given)
    0.63	1.9
- COC(=O)C(=NNc1ccccc1)N1CCCc2ccccc21
    0.7	6.3
- CC(C)Oc1ccc(C=NNC(N)=S)cc1
    0.71	4.1
- COc1ccc(CNC(=O)CC(C)=NNC(=O)c2ccc(OC)cc2OC)cc1
    0.66	5.4
- Cc1ccc(S(=O)(=O)NN=C2CC(c3ccccc3)Oc3ccccc32)cc1 (stereo not given)
    0.67	1.9
- Cc1ccc(-n2c(C)cc(C=NNC(=O)Cn3c4ccccc4c(=O)c4ccccc43)c2C)cc1
    0.67	-19
- COc1ccc2c(c1)c(C=NNc1ccc(C(=O)O)cc1)c(C)n2C
    0.69	-19
- O=C(O)CCC(=NNC(=O)c1cccs1)c1ccccc1
    0.64	3.5
- O=C(O)c1cccc(Cn2c(Cl)c(C=NNC(=O)c3ccccc3)sc2=O)c1
    0.69	2.0
- O=C(NN=Cc1cccnc1)c1cccc(Br)c1
    0.66	4.9
- CC(=NO)c1ccc2[nH]ccc2c1
    0.67	-1.1
- CCNc1ccc(C(=O)NN=Cc2c(C)nn(-c3ccccc3)c2N2CCCC2)cc1[N+](=O)[O-]
    0.71	6.6
- COc1cccc(C(C)=NNc2ncc(Cl)cc2Cl)c1
    0.69	4.7
- COc1cccc2cc(C(=O)Nc3ccccc3Cl)c(=NNS(=O)(=O)c3ccccc3)oc12
    0.71	7.7
- O=C(Cn1cc(C(F)(F)F)ccc1=O)NN=Cc1cccc(Cl)c1
    0.71	1.0

# These rows are one share of the data; the hit share may differ from the screen's.
